Screens: PubChem BioAssay, Johns Hopkins Ion Channel Center
KCNQ2 enhance – enhances the rat KCNQ2 potassium channel | B-score at 10 µM | 310,000 compounds, 0.54% hits | CHO-K1 KCNQ2, FluxOR thallium flux fluorescence; active compounds read high;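 active = fluorescence ratio B-score at least 3 SD of library B-scores, with initial fluorescence B-score within 3 SD, cut at about 5.3 in these data; same plate scores as AID 2156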;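 also: B-score of peak minus minimum over baseline fluorescence ratio after K+ and Tl+ stimulus; positive B-score means potentiation of KCNQ2 with more thallium influx and brighter signal; only the inactives scoring about 0 or higher are listed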
Target sequence (O88943 whole entry, looked up): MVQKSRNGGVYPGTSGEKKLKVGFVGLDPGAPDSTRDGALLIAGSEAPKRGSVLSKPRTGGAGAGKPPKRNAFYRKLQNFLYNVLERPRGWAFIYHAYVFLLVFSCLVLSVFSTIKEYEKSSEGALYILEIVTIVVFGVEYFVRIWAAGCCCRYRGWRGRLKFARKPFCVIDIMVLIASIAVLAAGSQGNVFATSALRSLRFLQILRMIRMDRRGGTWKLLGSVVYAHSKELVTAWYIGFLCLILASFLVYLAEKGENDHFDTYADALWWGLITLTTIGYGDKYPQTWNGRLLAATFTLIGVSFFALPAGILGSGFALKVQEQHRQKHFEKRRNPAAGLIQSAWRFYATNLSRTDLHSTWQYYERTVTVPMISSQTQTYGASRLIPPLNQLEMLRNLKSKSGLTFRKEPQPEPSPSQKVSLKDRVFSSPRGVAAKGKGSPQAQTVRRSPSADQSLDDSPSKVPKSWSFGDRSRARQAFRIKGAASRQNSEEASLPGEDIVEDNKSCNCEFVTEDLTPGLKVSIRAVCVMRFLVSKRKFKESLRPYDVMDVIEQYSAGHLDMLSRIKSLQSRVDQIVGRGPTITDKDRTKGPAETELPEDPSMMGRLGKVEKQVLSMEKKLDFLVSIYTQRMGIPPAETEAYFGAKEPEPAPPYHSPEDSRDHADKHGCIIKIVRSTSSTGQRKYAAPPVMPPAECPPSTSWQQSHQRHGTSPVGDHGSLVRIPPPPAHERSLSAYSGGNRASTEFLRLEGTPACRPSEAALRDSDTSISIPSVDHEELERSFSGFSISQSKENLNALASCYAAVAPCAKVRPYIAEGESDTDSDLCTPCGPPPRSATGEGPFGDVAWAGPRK
KCNQ2 enhance baseline – further read-out of KCNQ2 enhance, marked with its call; B-score; compound at 10 µM; measured here: initial fluorescence intensity artifact check;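 brightness before thallium and not channel activity; 0 = typical well and far values either way flag optical interference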
Starred values were filed as active, the others as inactive. Not all compounds are listed. The share of hits here may be higher or lower than overall.

`C=CCN(CC(=O)NCc1ccc(OC)cc1)C(=O)c1csnn1` gave KCNQ2 enhance 0.11 and KCNQ2 enhance baseline 1.07.
For Cc1ccc(C(C(=O)NCC2CCCO2)N(C(=O)c2snc(C(N)=O)c2N)c2ccccc2)o1 (centres undefined) the results were KCNQ2 enhance 2.78 and KCNQ2 enhance baseline 0.88.
Screening Cc1cc(C)c2sc(N(CCCN(C)C)C(=O)COc3ccc(Cl)cc3)nc2c1 returned KCNQ2 enhance 0.71 and KCNQ2 enhance baseline -0.68.
`COCCCN(CCCN)Cc1ccco1` gave KCNQ2 enhance 0.73 and KCNQ2 enhance baseline 0.1.
For CC(=O)Oc1ccc2c(=O)c(-c3ccccc3)c(C)oc2c1 the results were KCNQ2 enhance 0.75 and KCNQ2 enhance baseline 0.7.
For COc1cc(C(=S)N2CCOCC2)ccc1OC(=O)c1ccc([N+](=O)[O-])cc1[N+](=O)[O-] the results were KCNQ2 enhance 0.31 and KCNQ2 enhance baseline -0.63.
For CS(=O)(=O)N(CC(=O)NCCSCc1ccccc1)c1ccccc1Cl the results were KCNQ2 enhance 0.13 and KCNQ2 enhance baseline 0.22.
`O=C(Nc1cc(N2CCOCC2)ncn1)c1ccccc1` gave KCNQ2 enhance 0.77 and KCNQ2 enhance baseline 0.06.
For COc1cccc(C2C(C#N)=C(N)Oc3cc(C)oc(=O)c32)c1OC (centres undefined) the results were KCNQ2 enhance 1.44 and KCNQ2 enhance baseline 1.19.
For Cc1ccc(S(=O)(=O)n2cccc2CO)cc1 the results were KCNQ2 enhance 0.55 and KCNQ2 enhance baseline -0.52.
For Cc1nnc(Sc2cc(C(=O)NCCCN(C)Cc3ccccc3)c3ccccc3n2)s1 the results were KCNQ2 enhance 0.04 and KCNQ2 enhance baseline -2.25.
For CCSc1nnc(NC(=O)C2C3C=CC(C3)C2C(=O)O)s1 (centres undefined) the results were KCNQ2 enhance 0.47 and KCNQ2 enhance baseline -1.13.
Cc1cccc(NC(=O)CCSc2ccccc2)c1C was read as KCNQ2 enhance 0.39 and KCNQ2 enhance baseline 0.02.
For Cc1cccc(N(C(=O)CCC(=O)Nc2cc(C)on2)C(C(=O)NC2CCCC2)c2cccnc2)c1 (centres undefined) the results were KCNQ2 enhance 0.03 and KCNQ2 enhance baseline 0.03.
Screening O=C(O)c1ccc(N2CCCS2(=O)=O)cc1 returned KCNQ2 enhance 0.1 and KCNQ2 enhance baseline -0.34.

Part of the list above in order of SMILES length, falling.
Screening Cc1cc(C)c2sc(N(CCCN(C)C)C(=O)COc3ccc(Cl)cc3)nc2c1 returned KCNQ2 enhance 0.71 and KCNQ2 enhance baseline -0.68.
For CS(=O)(=O)N(CC(=O)NCCSCc1ccccc1)c1ccccc1Cl the results were KCNQ2 enhance 0.13 and KCNQ2 enhance baseline 0.22.
`C=CCN(CC(=O)NCc1ccc(OC)cc1)C(=O)c1csnn1` gave KCNQ2 enhance 0.11 and KCNQ2 enhance baseline 1.07.
Cc1cccc(NC(=O)CCSc2ccccc2)c1C was read as KCNQ2 enhance 0.39 and KCNQ2 enhance baseline 0.02.
`COCCCN(CCCN)Cc1ccco1` gave KCNQ2 enhance 0.73 and KCNQ2 enhance baseline 0.1.

Later entries.
O=C1[C@H]2[C@@H](C(=O)N1c1cccc3ccccc13)C1(C(=O)c3ccccc3C1=O)N1CCC[C@@H]21 was read as KCNQ2 enhance 0.13 and KCNQ2 enhance baseline -0.6.
Screening Cc1ccc(S(=O)(=O)N(C)C)cc1NC(=S)NNC(=O)C1CC1 returned KCNQ2 enhance 0.01 and KCNQ2 enhance baseline -2.27.
`NNC(=O)C1CC1(c1ccccc1)c1ccccc1` (centres undefined) gave KCNQ2 enhance 0.91 and KCNQ2 enhance baseline 0.05.
For O=C(N/N=C1/CC2C=CCC12)c1ccco1 (centres undefined) the results were KCNQ2 enhance 0.26 and KCNQ2 enhance baseline 0.13.
Cn1cc(C(=O)c2ccc(Cl)cc2Cl)cc1C(=O)N/N=C(\N)COc1ccc(F)cc1 was read as KCNQ2 enhance 1.13 and KCNQ2 enhance baseline -0.74.
O=C(Nc1cccc(-c2csc(-c3ccccc3)n2)c1)c1cccs1 was read as KCNQ2 enhance 0.38 and KCNQ2 enhance baseline 0.9.
Screening O=C(CC(c1ccccc1)c1cc(Br)ccc1O)N1CCCC1 (centres undefined) returned KCNQ2 enhance 2.5 and KCNQ2 enhance baseline -0.22.
`CCc1noc(C)c1C(=O)Nc1ccc(C#N)cc1` gave KCNQ2 enhance 0.16 and KCNQ2 enhance baseline 0.22.
For Cc1cccc(N2C(=O)CC(Sc3ccccc3C(=O)O)C2=O)c1 (centres undefined) the results were KCNQ2 enhance 0.32 and KCNQ2 enhance baseline 0.12.
For CC1(C)CC(=O)C=C(c2cc3ccccc3s2)C1 the results were KCNQ2 enhance 0.76 and KCNQ2 enhance baseline 0.59.
c1ccc2c(-c3nn[nH]n3)cccc2c1 was read as KCNQ2 enhance 0.78 and KCNQ2 enhance baseline -0.03.
Screening Cc1ccc(C(=O)N/N=C2\SCC(=O)N2c2cc(C)ccc2C)cc1 returned KCNQ2 enhance 0.05 and KCNQ2 enhance baseline 0.06.
O=C(Cc1ccccc1)Nc1nnc(-c2cccs2)s1 was read as KCNQ2 enhance 0.01 and KCNQ2 enhance baseline 1.84.
For COc1ccc(NC(=S)N/C(=N/S(=O)(=O)c2ccc(C)cc2)c2ccccc2)cc1 the results were KCNQ2 enhance 1.52 and KCNQ2 enhance baseline 3.28.
O=C(NCc1ccc(F)cc1)C1(c2cccs2)CCOCC1 was read as KCNQ2 enhance 0.02 and KCNQ2 enhance baseline -1.24.

Structural class: the entries above with a cyano group.
For COc1cccc(C2C(C#N)=C(N)Oc3cc(C)oc(=O)c32)c1OC (centres undefined) the results were KCNQ2 enhance 1.44 and KCNQ2 enhance baseline 1.19.
`CCc1noc(C)c1C(=O)Nc1ccc(C#N)cc1` gave KCNQ2 enhance 0.16 and KCNQ2 enhance baseline 0.22.

Going on with the list:
For COc1ccccc1C1c2[nH]c3ccccc3c2CCN1Cc1cnc(C)s1 (centres undefined) the results were KCNQ2 enhance 0.01 and KCNQ2 enhance baseline -0.08.
Screening COc1ccc(CC(NC(C)=O)C(=O)NC2CCN(C(=O)Nc3ccc(Cl)cc3)CC2)cc1OC (centres undefined) returned KCNQ2 enhance 0.36 and KCNQ2 enhance baseline -0.05.
Screening CC1CCC2(CC1)Nc1ccccc1C(=O)N2c1ccccc1 (centres undefined) returned KCNQ2 enhance 0.26 and KCNQ2 enhance baseline -0.05.
COc1ccc(C(=O)NCCCOC(=O)c2ccc(OC)cc2)cc1 was read as KCNQ2 enhance 0.1 and KCNQ2 enhance baseline 0.31.
Screening COc1ccc(CCNC(=O)CCc2ccccc2)cc1OC returned KCNQ2 enhance 0.75 and KCNQ2 enhance baseline -3.28.
`Cc1onc(-c2c(F)cccc2Cl)c1C(=O)N1CCc2ccccc2C1` gave KCNQ2 enhance 1.91 and KCNQ2 enhance baseline -0.18.
For CCCn1cc(NC(=O)c2cc3n(n2)C(C(F)(F)F)CC(c2ccccc2)N3)cn1 (centres undefined) the results were KCNQ2 enhance 0.59 and KCNQ2 enhance baseline 1.66.
Screening Cc1ccc(N(CC(=O)NCc2ccc(F)cc2)C(=O)c2csnn2)c(C)c1 returned KCNQ2 enhance 0.34 and KCNQ2 enhance baseline -1.19.
For Cc1cc(C)c(C(=O)C[n+]2cccc(C(N)=O)c2)c(C)c1 the results were KCNQ2 enhance 0.35 and KCNQ2 enhance baseline 1.69.
`CS(=O)(=O)c1ccc(C(=O)NC2CCCc3ccccc32)cc1` (centres undefined) gave KCNQ2 enhance 1.52 and KCNQ2 enhance baseline -0.08.
`Cc1onc(-c2ccccc2)c1C(=O)NC(=S)NNC(=O)c1ccc(O)cc1` gave KCNQ2 enhance 1 and KCNQ2 enhance baseline 0.27.
For O=C(Nc1ccc(N2CCOCC2)c(Cl)c1)c1cccc(-n2cnnc2)c1 the results were KCNQ2 enhance 1.91 and KCNQ2 enhance baseline 0.44.
Screening Cc1ccc(NC(=O)NCC2CCN(Cc3cccc(Cl)c3)CC2)cc1Cl returned KCNQ2 enhance 4.09 and KCNQ2 enhance baseline 1.04.
Screening CCOC(=O)c1[nH]c2ccc(Br)cc2c1NC(=O)CCN1CCC(C(=O)OCC)CC1 returned KCNQ2 enhance 0.53 and KCNQ2 enhance baseline 0.64.
For COc1ccccc1NC(=O)Nn1cnnc1 the results were KCNQ2 enhance 0.16 and KCNQ2 enhance baseline -0.37.
Screening Nc1cc(N)nc(SCc2ccccc2)n1 returned KCNQ2 enhance 1 and KCNQ2 enhance baseline 0.03.
For CCN(CC)C(=S)Oc1ccc(Cl)cc1Cl the results were KCNQ2 enhance 0.12 and KCNQ2 enhance baseline 0.09.
`CSc1ccc(C(=S)N2CCCCCC2)cc1` gave KCNQ2 enhance 0.36 and KCNQ2 enhance baseline 0.01.
Screening Cc1ccc(C2CC2C(=O)NN)cc1 (centres undefined) returned KCNQ2 enhance 0.69 and KCNQ2 enhance baseline 1.45.
COC(=O)C(C)Sc1nc2c(cnn2-c2ccccc2)c(=O)[nH]1 (centres undefined) was read as KCNQ2 enhance 1.41 and KCNQ2 enhance baseline -0.65.
COc1ccc(N(CC(=O)Nc2ccc3c(c2)OCCO3)S(=O)(=O)c2c(C)nn(C)c2C)cc1 was read as KCNQ2 enhance 0.93 and KCNQ2 enhance baseline 0.2.
Screening COc1ccc(OCc2cc(C(=O)NC(C)Cn3cncn3)no2)c(Cl)c1 (centres undefined) returned KCNQ2 enhance 0.65 and KCNQ2 enhance baseline 0.
`O=S(=O)(O/N=C1\CCCc2ccccc21)c1ccccc1` gave KCNQ2 enhance 0.33 and KCNQ2 enhance baseline -0.36.
`Cc1ccc(-c2csc3ncnc(OCC(=O)NC(=O)NCc4ccco4)c23)cc1` gave KCNQ2 enhance 1.53 and KCNQ2 enhance baseline -0.31.
`CCn1c(SCC(=O)N2CCCCC2)nc2c1c(=O)n(C)c(=O)n2C` gave KCNQ2 enhance 0.66 and KCNQ2 enhance baseline -0.81.
Screening CCn1nc(NC(=O)COC)c2cc3cccc(C)c3nc21 returned KCNQ2 enhance 1.27 and KCNQ2 enhance baseline 1.46.
Screening COc1ccc(Cl)cc1NC(=O)Cn1c(=O)oc2ccccc21 returned KCNQ2 enhance 1.37 and KCNQ2 enhance baseline 0.48.
Screening CN(CC(=O)Nc1ccc(F)cc1)C(=O)C1CCN(S(=O)(=O)c2ccc3c(c2)OCCO3)CC1 returned KCNQ2 enhance 1.3 and KCNQ2 enhance baseline 0.47.
Screening Cc1cc(NC(=O)/C=C/c2cccc(F)c2)n(-c2nc3ccccc3[nH]2)n1 returned KCNQ2 enhance 0.09 and KCNQ2 enhance baseline 1.13.
For Cc1cc2cc(CN(Cc3ccco3)S(=O)(=O)c3c(C)ccc4nsnc34)c(=O)[nH]c2cc1C the results were KCNQ2 enhance 0.97 and KCNQ2 enhance baseline 0.1.
O=C(COC(=O)c1ccc(N2CCOCC2)c([N+](=O)[O-])c1)Nc1ccc2c(c1)OCO2 was read as KCNQ2 enhance 0.64 and KCNQ2 enhance baseline -2.09.
Screening Cc1ccc(C(=O)/C=C/NCc2ccc(F)cc2)cc1 returned KCNQ2 enhance 0.56 and KCNQ2 enhance baseline -0.02.
O=c1cc(-c2cccc(Br)c2)oc2cccc(O)c12 was read as KCNQ2 enhance 4.23 and KCNQ2 enhance baseline -0.14.
O=C1C=C(NC2CCCC2)CC(c2ccccc2)C1 (centres undefined) was read as KCNQ2 enhance 0.22 and KCNQ2 enhance baseline 1.09.
`CSc1nc2sc3c(c2c(=S)[nH]1)CC(C)(C)OC3` gave KCNQ2 enhance 14.6* and KCNQ2 enhance baseline -1*.
`O=C(c1cnn2c(C(F)F)cc(C3CC3)nc12)N1CCCC1` gave KCNQ2 enhance 1.34 and KCNQ2 enhance baseline 3.09.
For COc1ccc(S(=O)(=O)N2CCCC(C(=O)NCc3ccc(F)cc3)C2)cc1 (centres undefined) the results were KCNQ2 enhance 0.34 and KCNQ2 enhance baseline 0.71.
Screening Cc1ccnc(NC(=O)c2cc3cc(F)ccc3s2)c1 returned KCNQ2 enhance 2.47 and KCNQ2 enhance baseline -2.07.
Screening CCN(C(=O)CSc1nc2cc(C(F)(F)F)ccc2n1Cc1ccccc1)C1CCS(=O)(=O)C1 (centres undefined) returned KCNQ2 enhance 0.14 and KCNQ2 enhance baseline -0.54.
`O=C(COC(=O)C1CC(=O)N(c2nc(-c3ccccc3)cs2)C1)c1ccccc1` (centres undefined) gave KCNQ2 enhance 0.21 and KCNQ2 enhance baseline -1.17.
`CC(C)(C)Nc1c2ccccc2nc2ccccc12` gave KCNQ2 enhance 1.3 and KCNQ2 enhance baseline -0.83.
`CCC(C)[C@H](NC(=O)NC1CCN(Cc2ccccc2)CC1)C(=O)OC` (some centres undefined) gave KCNQ2 enhance 1.16 and KCNQ2 enhance baseline -0.8.
COc1ccccc1-c1coc2c(CN3CCOCC3)c(O)ccc2c1=O was read as KCNQ2 enhance 1.64 and KCNQ2 enhance baseline -1.13.
`COc1ccccc1NC(=O)N1CCC(NC(=O)C(Cc2ccccc2F)NC(C)=O)CC1` (centres undefined) gave KCNQ2 enhance 0.05 and KCNQ2 enhance baseline 0.
COc1ccc(-n2c(Cc3cc(=O)[nH]c(=O)[nH]3)nnc2SCC(=O)N2CCCC2)cc1 was read as KCNQ2 enhance 0.06 and KCNQ2 enhance baseline -0.46.
For COc1cc(CNc2ccc(CNc3ncn[nH]3)cc2)cc(Cl)c1OCc1ccccc1 the results were KCNQ2 enhance 1.1 and KCNQ2 enhance baseline -0.23.
`CCC(C)C(=O)Nc1ncc2c(n1)CC(c1cccs1)CC2=O` (centres undefined) gave KCNQ2 enhance 0.09 and KCNQ2 enhance baseline 0.11.
For CN1CCCCc2c1[nH]c1ccccc1c2=O the results were KCNQ2 enhance 1.26 and KCNQ2 enhance baseline -0.62.
